Beta2AR agonist: beta2AR agonists driving receptor internalization, primary screen, cell-based, FAP fluorogen, flow cytometry. response, % (no concentration beside the values). actives 0.43% (n = 340,000). Am2.2-beta2AR cells; reference of the scale not given here. Beta-2 adrenergic receptor (Homo sapiens), P07550;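 active = response above a set limit, near 3 SD of response in nonfluorescent compounds, cut at about 42% in these data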;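 note: stock transfer was 100 nL into about 11 µL; a reference agonist was the positive control; negative values mostly stem from fluorescent compounds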
Target sequence (P07550 whole entry, looked up): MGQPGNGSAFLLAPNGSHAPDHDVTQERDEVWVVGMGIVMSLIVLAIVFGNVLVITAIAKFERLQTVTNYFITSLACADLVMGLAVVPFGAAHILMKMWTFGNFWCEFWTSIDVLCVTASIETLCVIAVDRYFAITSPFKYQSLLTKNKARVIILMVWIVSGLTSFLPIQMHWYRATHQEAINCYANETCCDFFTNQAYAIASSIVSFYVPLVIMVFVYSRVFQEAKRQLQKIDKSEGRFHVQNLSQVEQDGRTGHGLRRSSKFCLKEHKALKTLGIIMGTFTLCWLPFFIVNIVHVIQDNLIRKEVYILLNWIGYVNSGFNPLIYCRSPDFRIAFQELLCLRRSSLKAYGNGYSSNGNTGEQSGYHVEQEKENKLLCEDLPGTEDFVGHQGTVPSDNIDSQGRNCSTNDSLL
LANA-H2B inh: blockers of LANA interaction with H2A/H2B – biochemical, FP readout, HTS, primary screen; AID 2629, 2010; inhibition, % (concentration not given with the values); Protein LANA1 (Human herpesvirus 8 type P (isolate GK18)), Q9QR71; actives 0.6% (n = 320,000); cell-free LANA-H2A/H2B peptide, fluorescence polarization; in the data active = inhibition mostly above about 10%, no sharp cut-off; inactive = mostly below about 6.7%;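 note: stock transfer was 7.5 nL into about 10 µL; 0% = median of vehicle wells and 100% = median of positive control wells; one replicate is shown; the record names a cut of 25% in any replicate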
FGF22 binding: binders of human FGF22 protein, primary screen, FGF22 synaptogenesis inhibitor project, biophysical, thermal shift, single point | recombinant FGF22 thermal shift, SYPRO orange fluorescence; percent of sucrose octasulfate shift, DMSO zero | calls only at 9.99 µM | actives 1.5% (n = 340,000);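 active = melting point raised past a set limit in the mean and every replicate; three in four hits are not shown here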
HNF4A DNA FP: change in binding of human HNF4A to DNA, primary screen, biochemical, fluorescence polarization, FITC-DNA | activity change, % at 10 µM | 1 h | Hepatocyte nuclear factor 4-alpha (Homo sapiens), P41235 | actives 0.3% (n = 360,000); in the data active = activity change above about 30%, passing the limit was not always enough;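 note: controls were the assay level and a saturating level of protein; the project sought stronger binding though the title names inhibitors; some compounds called inactive have numbers as strong as hits; positive values seem to mean higher polarization but the record does not say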
Target sequence (P41235 whole entry, looked up): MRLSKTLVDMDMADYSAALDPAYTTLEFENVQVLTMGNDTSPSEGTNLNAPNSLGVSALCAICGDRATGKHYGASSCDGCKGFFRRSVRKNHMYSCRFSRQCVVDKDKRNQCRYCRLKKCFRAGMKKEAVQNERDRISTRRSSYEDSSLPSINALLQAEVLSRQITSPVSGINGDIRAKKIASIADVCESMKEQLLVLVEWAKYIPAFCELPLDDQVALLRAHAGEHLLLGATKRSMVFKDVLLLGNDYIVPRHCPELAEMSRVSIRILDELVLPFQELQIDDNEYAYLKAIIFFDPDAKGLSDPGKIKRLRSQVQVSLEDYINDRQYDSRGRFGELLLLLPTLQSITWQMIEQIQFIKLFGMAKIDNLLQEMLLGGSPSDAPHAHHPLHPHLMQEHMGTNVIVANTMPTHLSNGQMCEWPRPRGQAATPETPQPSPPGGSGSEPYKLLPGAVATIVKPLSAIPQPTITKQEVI
ALR H2O2 inh: inhibitors of human ALR sulfhydryl oxidase, primary screen, biochemical, H2O2 detection, HRP-luminol luminescence, single point. actives 3.8% (n = 290,000). FAD-linked sulfhydryl oxidase ALR (Homo sapiens), P55789. AID 485317, 2010. inhibition, % (no concentration beside the values). purified ALR, DTT oxidation;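 active = mean and each replicate at 75% or more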;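 note: stock transfer was 7.5 nL into about 7.5 µL; 0% = neutral wells and 100% = wells with inactivated enzyme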
Target sequence (P55789 whole entry, looked up): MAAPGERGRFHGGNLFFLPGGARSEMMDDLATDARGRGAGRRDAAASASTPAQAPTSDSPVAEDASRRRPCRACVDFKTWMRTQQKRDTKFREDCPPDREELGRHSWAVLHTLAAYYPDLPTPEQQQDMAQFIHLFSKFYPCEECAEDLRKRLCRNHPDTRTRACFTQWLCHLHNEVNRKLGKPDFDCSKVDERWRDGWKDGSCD
Ecoli growth: E. coli growth inhibition, primary screen, OD600. OD600 absorbance (concentration not given with the values). Escherichia coli growth, 23 h; hits give low values. actives 0.21% (n = 330,000);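 active = OD600 absorbance below the run mean of sample wells minus 3.6 SD, in any replicate, cut at about 0.56 in these data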;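 note: stock transfer was 300 nL into about 60 µL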
UCH37 DUB inh: inhibitors of human UCH37 deubiquitinase, primary screen, biochemical, Ub-AMC cleavage, fluorescence; Ubiquitin carboxyl-terminal hydrolase isozyme L5 (Homo sapiens), Q9Y5K5; purified proteasome/UCH37; inhibition, % (concentration not given with the values); actives 0.33% (n = 330,000);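 active = mean of two replicates above 20%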;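 note: 0% = compound-free wells with enzyme and 100% = wells lacking proteasome; stock transfer was 100 nL into about 20 µL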
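Material: Human UCH37 enzyme supplied as purified proteasome complex | Schedule: 30 min compound-proteasome preincubation then 25 min substrate reaction, room temperature | Detection: AMC fluorescence from Ub-AMC cleavage, excitation 355 nm, emission 460 nm | Benchmarks: Wells without proteasome as full block, compound-free enzyme plus substrate as uninhibited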
* = called active by the depositor. Some of the compounds tested; count on the stated rates, not on these rows.

A first look, 2 compounds:
Screening CCOC(=O)c1c(C)[nH]c(C(=O)COC(=O)CCC2CCCC2)c1C returned Beta2AR agonist 10, LANA-H2B inh -0.7, HNF4A DNA FP 0.0, ALR H2O2 inh -10, Ecoli growth 0.75 and UCH37 DUB inh 1.6.
For COc1cc(C(=O)NC2CC3CCCC(C2)N3C2CC2)cc(OC)c1OC (stereo unspecified) the results were Beta2AR agonist 2, LANA-H2B inh 3.2, HNF4A DNA FP 3.8, ALR H2O2 inh -1, Ecoli growth 0.7 and UCH37 DUB inh 0.6.

All compounds of this part, from the start:
Screening CCOC(=O)c1c(C)[nH]c(C(=O)COC(=O)CCC2CCCC2)c1C returned Beta2AR agonist 10, LANA-H2B inh -0.7, HNF4A DNA FP 0.0, ALR H2O2 inh -10, Ecoli growth 0.75 and UCH37 DUB inh 1.6.
For COc1cc(C(=O)NC2CC3CCCC(C2)N3C2CC2)cc(OC)c1OC (stereo unspecified) the results were Beta2AR agonist 2, LANA-H2B inh 3.2, HNF4A DNA FP 3.8, ALR H2O2 inh -1, Ecoli growth 0.7 and UCH37 DUB inh 0.6.
`CC1CCN(S(=O)(=O)c2ccc(NC(=O)Cn3nnc(-c4ccccc4)n3)cc2)CC1` gave Beta2AR agonist 5, LANA-H2B inh -2.1, HNF4A DNA FP -1.3, ALR H2O2 inh -3, Ecoli growth 0.75 and UCH37 DUB inh 1.8.
NS(=O)(=O)c1cccc(NC(=O)CCSc2ccccc2Cl)c1 was read as Beta2AR agonist 2, LANA-H2B inh -7.3, FGF22 binding inactive, HNF4A DNA FP -0.7, ALR H2O2 inh -35, Ecoli growth 0.65 and UCH37 DUB inh 1.9.
CCc1ccc(N(CC(=O)NCc2ccco2)C(=O)CCC(=O)Nc2ccccn2)cc1 was read as Beta2AR agonist 7, LANA-H2B inh -2.9, FGF22 binding inactive, HNF4A DNA FP 4.5, ALR H2O2 inh -4, Ecoli growth 0.6 and UCH37 DUB inh 0.8.
For CCOC(=O)CCNCc1ccc(OC)c(OC)c1 the results were Beta2AR agonist -1, LANA-H2B inh 3.7, FGF22 binding inactive, HNF4A DNA FP 2.9, Ecoli growth 0.72 and UCH37 DUB inh 1.3.
Screening Cc1ccc(C(=O)c2nc3c(n2O)CCCC3)cc1 returned Beta2AR agonist -6, LANA-H2B inh 0.7, HNF4A DNA FP 1.8, ALR H2O2 inh -8, Ecoli growth 0.76 and UCH37 DUB inh 10.
O=C1CC(N2CCN(c3ccc(O)cc3)CC2)C(=O)N1Cc1cccs1 (stereo unspecified) was read as Beta2AR agonist 1, LANA-H2B inh 7.7, HNF4A DNA FP 1.1, ALR H2O2 inh 99*, Ecoli growth 0.7 and UCH37 DUB inh 0.5.
For CC(C(=O)NCc1ccco1)n1ccc2cc(S(=O)(=O)N3CCCC3)ccc21 (stereo unspecified) the results were Beta2AR agonist 2, LANA-H2B inh -2.3, FGF22 binding inactive, HNF4A DNA FP 0.2, ALR H2O2 inh -7, Ecoli growth 0.7 and UCH37 DUB inh 5.2.
COc1ccc(CC(=O)Oc2ccc(C)cc2Br)cc1OC was read as Beta2AR agonist 3, LANA-H2B inh -2.1, FGF22 binding inactive, HNF4A DNA FP 0.2, ALR H2O2 inh 38, Ecoli growth 0.69 and UCH37 DUB inh 1.0.
Screening CCc1nnc(NS(=O)(=O)c2ccc(NC(=O)/C=C/C(=O)O)cc2)s1 returned Beta2AR agonist -4, LANA-H2B inh 5.3, FGF22 binding inactive and HNF4A DNA FP 0.0.
CCC(=O)N1c2ccc(C)cc2C2=NNC(=S)NC21O (stereo unspecified) was read as Beta2AR agonist 2, LANA-H2B inh -5.0, HNF4A DNA FP -0.3 and ALR H2O2 inh -16.
O=C(CCCOc1ccccc1)Nc1nnc(C2CCCO2)s1 (stereo unspecified) was read as Beta2AR agonist 0, LANA-H2B inh -0.9, HNF4A DNA FP -5.1, Ecoli growth 0.75 and UCH37 DUB inh 2.0.
Screening S=c1[nH]nc(-c2cc(-c3ccsc3)n[nH]2)n1-c1ccccc1 returned Beta2AR agonist 4, LANA-H2B inh 3.7, FGF22 binding inactive, HNF4A DNA FP -3.0, ALR H2O2 inh 67, Ecoli growth 0.59 and UCH37 DUB inh 4.5.
Screening O=C1C=C(NCCN2CCOCC2)CC(c2ccccc2)C1 (stereo unspecified) returned Beta2AR agonist 3, LANA-H2B inh 3.0, FGF22 binding inactive, HNF4A DNA FP -6.2, ALR H2O2 inh -1, Ecoli growth 0.7 and UCH37 DUB inh 1.5.
COc1cc2c(c(OC)c1OC)-c1ccc(OC)c(=O)cc1[C@@H](N(C)CC#CCO)CC2 was read as Beta2AR agonist 3, LANA-H2B inh -1.1, FGF22 binding inactive, HNF4A DNA FP -1.9 and ALR H2O2 inh -26.
Screening O=C(c1ccc2c(c1)OCO2)N1CCCC(c2ccccc2)C1 (stereo unspecified) returned Beta2AR agonist -3, LANA-H2B inh -4.0, FGF22 binding inactive, HNF4A DNA FP -0.2, ALR H2O2 inh 0, Ecoli growth 0.66 and UCH37 DUB inh 4.6.
Screening O=C(Nc1cccc(-c2cscn2)c1)C1CCN(Cc2ccccn2)CC1 returned Beta2AR agonist 5, FGF22 binding inactive, HNF4A DNA FP 10, Ecoli growth 0.7 and UCH37 DUB inh 1.2.
O=C(Nc1ccncc1)c1ccc(Cl)c(S(=O)(=O)N2CCCCC2)c1 was read as Beta2AR agonist 4, LANA-H2B inh -3.0, FGF22 binding inactive, HNF4A DNA FP -1.5, ALR H2O2 inh -1, Ecoli growth 0.66 and UCH37 DUB inh -2.0.
For COc1ccc(N2CCN(c3nc4c(c(=O)n(C)c(=O)n4C)n3CCCc3ccccc3)CC2)cc1 the results were Beta2AR agonist 2, LANA-H2B inh 12, HNF4A DNA FP -2.8, ALR H2O2 inh 12, Ecoli growth 0.71 and UCH37 DUB inh 0.3.
CCN(CC)S(=O)(=O)c1cccc(-c2nc3n(n2)Cc2ccccc2-3)c1 was read as Beta2AR agonist -12, LANA-H2B inh -6.0, FGF22 binding inactive, HNF4A DNA FP 0.7, ALR H2O2 inh -8, Ecoli growth 0.72 and UCH37 DUB inh 2.7.
`CC(C)C1Nc2ccc(C(=O)NCc3ccco3)cc2NC1=O` (stereo unspecified) gave Beta2AR agonist -3, LANA-H2B inh -0.5, FGF22 binding inactive, HNF4A DNA FP -2.5, ALR H2O2 inh -20, Ecoli growth 0.68 and UCH37 DUB inh -5.5.
For COC(=O)c1nc(N)sc1C(C)C the results were Beta2AR agonist 11, LANA-H2B inh -2.0, FGF22 binding inactive, HNF4A DNA FP -0.8, ALR H2O2 inh -4, Ecoli growth 0.7 and UCH37 DUB inh 3.0.
Screening O=C1NC(=O)c2cc(NC(=O)c3cccc4ccccc34)ccc21 returned Beta2AR agonist 5, LANA-H2B inh 1.6, FGF22 binding inactive, HNF4A DNA FP -1.5, Ecoli growth 0.74 and UCH37 DUB inh -132.
`COc1ccc(C(C(=O)NC2CCCC2)N(CCO)C(=O)Cn2nnc(-c3ccc(C)o3)n2)cc1` (stereo unspecified) gave Beta2AR agonist 7, LANA-H2B inh -3.3, FGF22 binding inactive, HNF4A DNA FP 4.3, ALR H2O2 inh -2, Ecoli growth 0.65 and UCH37 DUB inh 0.9.
`Cc1ccc(CN2CCC(=O)N2)cc1` gave Beta2AR agonist -4, LANA-H2B inh 5.6, FGF22 binding inactive, HNF4A DNA FP -1.5, ALR H2O2 inh 4, Ecoli growth 0.68 and UCH37 DUB inh 0.9.
`Cc1nn(C)cc1CNC(=O)c1ccc(F)cc1` gave Beta2AR agonist 6, LANA-H2B inh 5.2, FGF22 binding inactive, HNF4A DNA FP -0.1, ALR H2O2 inh -5, Ecoli growth 0.62 and UCH37 DUB inh 3.1.
For CC(C)(C)c1ccc(COC(=O)CNC(=O)CNC(=O)Cc2ccccc2)cc1 the results were Beta2AR agonist 0, LANA-H2B inh 2.2, HNF4A DNA FP 1.0, ALR H2O2 inh -2, Ecoli growth 0.7 and UCH37 DUB inh -1.4.
`COc1ccc(-c2nc(CNS(=O)(=O)c3ccc(OC)c(OC)c3)cs2)cc1` gave Beta2AR agonist -4, LANA-H2B inh 1.7, FGF22 binding inactive, HNF4A DNA FP 3.4, ALR H2O2 inh -8, Ecoli growth 0.77 and UCH37 DUB inh -2.2.
`O=c1c2ccccc2nc(SCc2ccc([N+](=O)[O-])cc2)n1-c1ccccc1` gave Beta2AR agonist -115, LANA-H2B inh 1.2, HNF4A DNA FP 1.8, ALR H2O2 inh -8, Ecoli growth 0.74 and UCH37 DUB inh 2.3.
For O=c1cc(-c2ccccc2)oc2ccccc12 the results were Beta2AR agonist -4, LANA-H2B inh -0.5, FGF22 binding inactive, HNF4A DNA FP 0.3, Ecoli growth 0.74 and UCH37 DUB inh 5.9.
For FC(F)(F)c1nnc2c(Sc3ccc(Cl)cc3)nc3ccccc3n12 the results were Beta2AR agonist 23, LANA-H2B inh -1.8, HNF4A DNA FP 0.5, ALR H2O2 inh 5, Ecoli growth 0.77 and UCH37 DUB inh -180.
For O=C(Cn1cnc2ccccc21)Nc1ccccc1-c1ccccc1 the results were Beta2AR agonist -9, LANA-H2B inh -7.8, FGF22 binding inactive, HNF4A DNA FP 4.7, ALR H2O2 inh -10, Ecoli growth 0.64 and UCH37 DUB inh 4.1.
`CC(=O)Nc1ccc(S(=O)(=O)NCC2CCC(C(=O)NCc3ccccc3)CC2)cc1` (stereo unspecified) gave Beta2AR agonist -1, LANA-H2B inh 1.3, FGF22 binding inactive, HNF4A DNA FP 1.7, ALR H2O2 inh 51, Ecoli growth 0.71 and UCH37 DUB inh 5.0.
Screening COC(=O)c1ccc(C(=O)OC)c(NC(=S)N2CCC(C)CC2)c1 returned Beta2AR agonist -1, LANA-H2B inh -0.4, HNF4A DNA FP -2.8, ALR H2O2 inh -6, Ecoli growth 0.66 and UCH37 DUB inh -8.4.
Screening C/C(=N/NC(=O)c1ccccc1)C(=O)O returned Beta2AR agonist 5, LANA-H2B inh 4.9, FGF22 binding inactive, HNF4A DNA FP 0.3 and ALR H2O2 inh 0.
CCC(C(=O)NCc1ccccc1OC)c1ccccc1 (stereo unspecified) was read as Beta2AR agonist -2, LANA-H2B inh 6.2, FGF22 binding inactive, HNF4A DNA FP -0.3, ALR H2O2 inh 5, Ecoli growth 0.7 and UCH37 DUB inh 1.1.
For O=c1[nH]c(N2CCOCC2)nc2c1CCCC2 the results were Beta2AR agonist -6, LANA-H2B inh 0.7, HNF4A DNA FP 0.5, ALR H2O2 inh 2, Ecoli growth 0.7 and UCH37 DUB inh 3.8.
Screening COCCCN(Cc1ccco1)C(=O)Cn1ncc2c(=O)oc3ccc(C)cc3c21 returned Beta2AR agonist 6, LANA-H2B inh -3.0, FGF22 binding inactive, HNF4A DNA FP -0.9, ALR H2O2 inh -2, Ecoli growth 0.7 and UCH37 DUB inh 3.7.
`Cc1cccc(C)c1Nc1nnc(SCC(=O)c2ccc(Br)s2)s1` gave Beta2AR agonist 6, LANA-H2B inh -3.1, FGF22 binding inactive, HNF4A DNA FP 1.0 and ALR H2O2 inh 57.
Screening O=C(NCc1ccccc1Cl)c1ccc(CSc2nc3ccncc3[nH]2)cc1 returned Beta2AR agonist -8, LANA-H2B inh -0.7, FGF22 binding inactive, HNF4A DNA FP 1.8, ALR H2O2 inh 19, Ecoli growth 0.67 and UCH37 DUB inh 1.2.
For Cc1ccc(C(=O)NCc2ccco2)cc1S(=O)(=O)N1CCCC1 the results were Beta2AR agonist -3, LANA-H2B inh -0.4, FGF22 binding inactive, HNF4A DNA FP 3.3, ALR H2O2 inh -1, Ecoli growth 0.67 and UCH37 DUB inh 0.7.

Screening results as filed in PubChem.
